YjeE inh = displaces an ADP probe from E. coli YjeE (TsaE) | P0AF67 | purified YjeE, fluorescence polarisation of a bound ADP probe | Potency, µM | 71,000 tested, 0.05% active | AID 605; active = well fitted falling curve; inconclusive = weaker or top-dose-only fall, or a rising curve; inactive = flat or poorly fitted curve;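 further: top concentration of the series not given in the record; excess ADP was the control for the full effect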
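Purified YjeE (10 uM) with BODIPY Texas Red-labeled ADP probe (2 uM); compounds pin-transferred, 15 min at room temperature. Binding inhibition read as decreased fluorescence polarization; ADP titration as control.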
Bst PK mod = pyruvate kinase (B. stearothermophilus) modulation | partly purified Bacillus stearothermophilus pyruvate kinase, luminescence ATP production; ribose 5-phosphate activator present at AC10 | Potency, µM | 51,000 tested, 1.2% active | AID 361; in the data active means potency below about 11 µM; inconclusive means mostly about 12 µM to 25 µM; inactive means weaker than that;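 the screen sought inhibitors and activators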;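 further: potency means the concentration at half of the fitted maximal effect; scaled between full activation by ribose 5 phosphate and full inhibition by luteolin; about four in five hits inhibit and the cells do not say which; series up to 57 µM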
* hit, by the source's call; i = inactive; x = not tested or not shown. An excerpt (hit frequency here may not be typical).

Below each SMILES: YjeE inh | Bst PK mod
- CCCCc1n[nH]c2c1/C(=N/O)CC(c1ccccc1)C2 (configuration not stated)
 : i | >57
- CCCSCCCNC(=O)Cn1cc2c(n1)CCCCC2
 : i | x
- COc1nc(NC(C)=O)nc(C)c1Br
 : i | x
- Cc1nn(C)cc1CNC(=O)c1cnn2c(C(F)F)cc(C3CC3)nc12
 : i | >57
- Cc1ccc(-c2nc3cccnc3o2)cc1NC(=O)COc1ccc(Cl)cc1C
 : i | x
- Nc1nc(N)c2nc(CNc3ccc(C(=O)N[C@H](CCC(=O)O)C(=O)O)cc3)cnc2n1
 : i | x
- COc1ccc(CCNC(=O)CN(C)S(=O)(=O)c2cccs2)cc1OC
 : i | >57
- O=C(c1cc(-c2ccc(F)cc2)on1)N1CCCC1
 : i | x
- N[C@H](CCCP(=O)(O)O)C(=O)O
 : i | x
- CCCCc1nc2n[nH]c(N)c2c2c1CCC2
 : i | x
- Cc1ccc(-c2noc(CN(C(=O)CCCN3C(=O)c4ccccc4C3=O)C(C)C)n2)cc1
 : i | >57
- COc1cc(OC)cc(C(=O)N2CCN(c3ncccn3)CC2)c1
 : i | >57
- CCCC(=O)NC(c1ccco1)c1cc(Cl)c2cccnc2c1O (configuration not stated)
 : i | x
- CCN1C(=O)C2(C(C(=O)c3ccc(C)o3)=C(O)C(=O)N2CCCN2CCOCC2)c2ccccc21 (configuration not stated)
 : i | >57
- CC1=NN(C(=O)c2ccncc2)C(=O)[C@@H]1N=Nc1ccc2ccccc2c1
 : i | x
- COc1cc(C2NC(=O)N(C)C3=C2C(=O)CCC3)cc(OC)c1OC (configuration not stated)
 : i | x
- COc1ccc(S(=O)(=O)Cc2ccc(C(=O)N3CCN(c4ccccc4F)CC3)o2)cc1
 : i | x
- Cc1c(Cl)cccc1NC(=O)C[C@H]1Sc2ccccc2NC1=O
 : i | x
- O=S1(=O)NC(=NCc2ccco2)c2ccccc21
 : i | >57
- COc1ccc(-c2nsc3c(N4CCN(C(=O)c5ccco5)CC4)ncnc23)cc1
 : i | x
- CCOC(=O)N1CCN(C(=O)c2ccc(Cl)c(S(=O)(=O)N3CCOCC3)c2)CC1
 : i | >57
- CN1CCN(c2ccc(NC(=O)COc3ccc(Cl)cc3Cl)cc2)CC1
 : i | >57
- O=C(O)c1ccncc1.O=C(O)c1ccncc1.[NH2-].[NH2-].[Pt]
 : i | x
- CN[C@H]1[C@@H](O[C@@H]2[C@H](O[C@@H]3[C@@H](O)[C@@H](O)[C@@H](N=C(N)N)[C@@H](O)[C@@H]3N=C(N)N)O[C@H](C)[C@@]2(O)C=O)O[C@@H](CO)[C@@H](O)[C@H]1O
 : i | x
- Nc1nnc(SCC(=O)N2CCN(c3ccccc3)CC2)n1-c1ccccc1
 : i | >57
- COc1cccc(CNC(=O)C2CCCN(S(=O)(=O)c3c(C)n[nH]c3C)C2)c1 (configuration not stated)
 : i | >57
- CCOc1ccccc1-n1c(SCC(N)=O)nnc1-c1ccccc1
 : i | >57
- Cc1ccc2[nH]c(=O)c(C(c3nnnn3C3CCCC3)N(Cc3cccnc3)Cc3ccco3)cc2c1 (configuration not stated)
 : i | >57
- Cc1occc1-c1nnc(SCC(=O)Nc2ccccc2)n1Cc1ccccc1
 : i | >57
- CCOC(=O)N1CCC(NC(=O)CCC(=O)N2CCOc3ccccc32)CC1
 : i | >57

Next part.
Below each SMILES: YjeE inh | Bst PK mod
- Cc1ccc(C)c(N2CCN(C(=O)C3CCCN(S(=O)(=O)c4cnc[nH]4)C3)CC2)c1 (configuration not stated)
 : i | x
- CC1(C)CC(NC(=O)c2coc(=O)c(Br)c2)CC(C)(C)N1
 : i | >57
- CC(=O)N1CCN(c2ccc(OC[C@H]3CO[C@](Cn4ccnc4)(c4ccc(Cl)cc4Cl)O3)cc2)CC1
 : i | x
- Cn1cnc([N+](=O)[O-])c1Sc1nc(N)nc2c1ncn2Cc1ccccc1
 : i | x
- CC(C)(C)NC(=O)CSc1nnc(-c2ccco2)n1Cc1ccco1
 : i | >57
- CCc1nnc(NC=C2C(=O)OC(C)(C)OC2=O)s1
 : i | >57
- CC(=O)/C(C(=N)N1CCN(c2cccc(Cl)c2)CC1)=C(\C)O
 : i | >57
- Fc1ccc(-c2nnc(-c3ccc(Cl)cc3)o2)cc1
 : i | x
- Cc1cccc(Cc2c(C)nc3c(C(=O)NCc4ccco4)cnn3c2C)c1
 : i | >57
- O=C(CCNS(=O)(=O)c1cccc2nonc12)NCc1cccs1
 : i | >57
- Cc1nn(Cc2ccccc2)c(Cl)c1C(=O)OC1CCOC1=O (configuration not stated)
 : i | >57
- C=CCn1c(Br)nc2c1c(=O)[nH]c(=O)n2C
 : i | >57
- CC(=O)c1sc(N2C(=O)c3oc4ccccc4c(=O)c3C2c2ccc(C)o2)nc1C (configuration not stated)
 : i | x
- N#Cc1nc(N2CCCC2)nc(N2CCCC2)n1
 : i | >57
- Cc1cc(C)n(-c2ccc3cccc(NS(C)(=O)=O)c3n2)n1
 : i | >57
- CC(C)c1ccc(/C(C(=O)O)=C(\O)C(=O)O)cc1
 : i | x
- CCn1c(SCC(=O)NCC2CCCO2)nc2cc(S(=O)(=O)N3CCCCC3)ccc21 (configuration not stated)
 : i | >57
- Cn1c(=O)c(-c2cccc(C#N)c2)nc2cnc(Oc3ccccc3)nc21
 : i | x
- CCCNS(=O)(=O)c1ccc(CCC(=O)N2CCCCC2)cc1
 : i | >57
- COCCn1c(=O)[nH]c2cc(C(=O)NCCN3CCN(c4ccc(OC)cc4)CC3)ccc2c1=O
 : i | >57
- COCCn1nnnc1C(c1ccc2ncccc2c1)N1CCc2ccccc21 (configuration not stated)
 : i | >57
- CCN1C(=O)CS/C1=N\c1nccs1
 : i | x
- N#CCSc1nnc(CNc2cccc(Cl)c2)o1
 : i | >57
- O=C1N2CN(C(c3ccccc3)c3ccccc3)CN=C2SC1(CO)CO
 : i | x
- COc1ccc(CCN(Cc2cccs2)S(=O)(=O)c2ccc(-n3cnnn3)cc2)cc1OC
 : i | >57
- O=c1cc(CN2CCc3ccccc32)nc2sccn12
 : i | >57
- CCCC(=O)Nc1ccccc1NC(=O)C1CCCCC1
 : i | >57
- CCOC(=O)CCc1c(C)c(C#N)c2nc3ccccc3n2c1-n1ccnc1
 : x | >25.6
- O=S(=O)(CCn1cccc1)CCn1cccc1
 : i | >57
- Cc1nc2nc(CSc3nnc(C)s3)cc(=O)n2[nH]1
 : i | >57

More entries follow:
Below each SMILES: YjeE inh | Bst PK mod
- Cc1cccc(CNc2ncncc2-c2ccccc2Cl)c1
 : i | x
- CCCCOc1ccc(C(=O)NC)cc1
 : i | >57
- COCc1[nH]nc2c1C(c1sccc1C)C(C#N)=C(N)O2 (configuration not stated)
 : x | >11.4
- COc1ccccc1CN(CC(=O)NCC1CCCO1)C(=O)CNS(=O)(=O)c1ccc(C)cc1 (configuration not stated)
 : i | >57
- CCOc1nc(OCC)nc(N2CCC(C)CC2)n1
 : i | >57
- CCOc1ccc(CC(=O)NCc2cn3c(C)csc3n2)cc1
 : i | x
- Cc1cnc(C(=O)Nc2ccc(C(=O)N(C)C3CCCCC3)cc2)cn1
 : i | >57
- O=C(O)C1CCCCC1C(=O)Nc1ccccn1 (configuration not stated)
 : i | >57
- O=C(O)c1cc(O)ccc1-c1ccc(O)cc1
 : i | >57
- CCCCC(c1nnnn1CCOC)N1CCN(c2cccc(OC)c2)CC1 (configuration not stated)
 : i | >57
- COc1ccc(NC(=O)C2CC(c3cc(OC)c(OC)c(OC)c3)=NO2)cc1OC (configuration not stated)
 : i | >57
- Cn1cccc1Cc1nnc(SCC(=O)NC2CCCC2)n1CCc1ccccc1
 : i | x
- CCc1ccccc1N1C(=O)C2CC=CCC2C1=O (configuration not stated)
 : i | x
- COCCNS(=O)(=O)c1ccc2c(c1)C(=O)c1cc(S(=O)(=O)NCCOC)ccc1-2
 : i | x
- CC(C)(C)c1ccc(OC(=O)Nc2ccc(O)c(C(=O)O)c2)cc1
 : i | x
- CC(=O)c1c(C)n(-c2ccccc2)c2ccc(O)cc12
 : i | >57
- Cc1nc2oc3ccccc3c(=O)c2c(=O)n1Cc1ccccc1
 : i | >57
- COc1cc(C2Nc3cccc4cccc(c34)N2)cc(OC)c1OC(C)=O
 : x | >25.6
- CN(C1CCCCC1)S(=O)(=O)c1ccc2c(c1)c(=O)c(C(=O)NCCCN1CCCC1)cn2C
 : i | x
- O=C(O)c1cnn2c(C(F)(F)F)cc(-c3ccco3)nc12
 : x | >25.6
- CC1CC(C)CN(C(=O)C(NS(=O)(=O)c2ccc3c(c2)oc(=O)n3C)C(C)C)C1 (configuration not stated)
 : i | x
- Cc1cc(NC(=O)Cn2c(=O)c3c(ncn3CCC(C)C)n(Cc3ccccc3)c2=O)no1
 : i | >57
- OC(c1cccs1)c1nccc2ccccc12 (configuration not stated)
 : i | i
- Cc1nc(SCC(=O)NCc2ccc3c(c2)OCO3)c(C#N)c2c1CCCC2
 : i | >57
- c1cc(C2CCCCC2)ccc1Oc1nc(N2CCOCC2)nc(N2CCOCC2)n1
 : i | >57
- Cc1noc(C)c1-c1nccc(N2CCOCC2)n1
 : i | x
- Cc1ccccc1-c1nc(NC2CC2)c2ccccc2n1
 : i | x
- COCCn1c(=O)c(-c2cc(F)cc(F)c2)nc2cnc(N3CCNCC3)nc21
 : i | x
- CCOC(=O)N1CCN(c2ncnc3nc[nH]c23)CC1
 : i | x
- CC(c1ccco1)N(C(=O)COc1ccc(Cl)cc1)c1ccccn1 (configuration not stated)
 : i | >57

The last 3 entries of the part above open the next one.
Below each SMILES: YjeE inh | Bst PK mod
- COCCn1c(=O)c(-c2cc(F)cc(F)c2)nc2cnc(N3CCNCC3)nc21
 : i | x
- CCOC(=O)N1CCN(c2ncnc3nc[nH]c23)CC1
 : i | x
- CC(c1ccco1)N(C(=O)COc1ccc(Cl)cc1)c1ccccn1 (configuration not stated)
 : i | >57
- O=C(Cc1nn[nH]n1)NCCC1=CCCCC1
 : i | >57
- O=C(Cc1ccccc1)Nn1cnc2ccccc21
 : i | >57
- O=C(Cn1nnc2ccccc21)C1CC1
 : i | >57
- CC(C)OCCCn1c(=NC(=O)c2ccncc2)c(C#N)cc2c(=O)n3ccccc3nc21
 : i | >57
- Cc1ccc(NC2=NC(c3ccc(O)cc3)n3c(nc(C)cc3=O)N2)cc1 (configuration not stated)
 : i | >57
- CNc1nc(-c2ccoc2)nc2ccccc12
 : i | x
- CCc1ccc(C2C(C#N)=C(N)SC(N)=C2C#N)s1
 : i | x
- Cn1c(C(=O)NCCCN2CCN(c3cccc(Cl)c3)CC2)cc2c(=O)n(C)c3ccccc3c21
 : i | x
- COc1ccccc1NC(=O)C1=C(C)Nc2ncnn2C1c1cccs1 (configuration not stated)
 : i | >57
- O=C(c1ccco1)N1CCC2(CC1)CCN(c1cccc(-c3ccccc3)c1)CC2
 : i | x
- Cc1ccccc1-c1ccc2ncnc(NCc3cccnc3)c2c1
 : i | x
- CC(NC(=O)Nc1ccc(F)cc1F)c1ccncc1 (configuration not stated)
 : i | >57
- CS(=O)(=O)N(CC(=O)N1CCN(Cc2ccccc2)CC1)C1CCCCC1
 : i | >57
- COc1ccc(S(=O)(=O)N(C)c2ccc(C(=O)NCC3CCCO3)cc2)cc1 (configuration not stated)
 : i | >57
- Cc1[nH]nc2c1C(c1ccc(F)cc1)C(C#N)=C(N)O2 (configuration not stated)
 : i | >57
- Nc1c(C(O)(C(F)(F)F)C(F)(F)F)ccc2ccccc12
 : i | >57
- O=C(O)CNC(=O)c1ccccc1F
 : i | >57
- C=C(C)CSc1nnc(-c2ccc(OC)c(OC)c2)n1N
 : i | x
- c1ccc(CNc2ncncc2-c2cccnc2)cc1
 : i | x
- [O-]/[N+](=C/c1ccc(F)cc1)c1ccccc1
 : i | >57
- CCOC(=O)C1CCN(c2ncnc3nc[nH]c23)CC1
 : i | x
- Cc1ccc2oc(C(=O)Nc3c(C)n(C)n(-c4ccccc4)c3=O)c(C)c2c1
 : i | >57
- C[C@@H](C(=O)Cc1ccc2ccccc2c1)[C@@H]1C[C@@]1(C)[C@@H](NP(=O)(c1ccccc1)c1ccccc1)c1ccccc1
 : i | x
- CCCCC(=O)Nc1ncc(Br)s1
 : i | >57
- O=C(Nc1ccc2c(c1)OCO2)Nc1cnccn1
 : i | >57
- O=C(NC1(C(F)(F)F)NC(=O)N(C2CCCCC2)C1=O)c1cccs1 (configuration not stated)
 : i | >57
- O=C(Cc1cccs1)Nc1ccc(C(=O)O)cc1
 : i | >57
- COc1ccc(N2CCCCn3c2nc2c3c(=O)[nH]c(=O)n2C)cc1
 : i | >57
- COc1cc(C2C(C(C)=O)=C(O)C(=O)N2CCc2ccc(OC)c(OC)c2)ccc1O (configuration not stated)
 : i | >57
- O=C(O)COc1ccc(Br)cc1/C=N/O
 : i | x

New compounds follow
Below each SMILES: YjeE inh | Bst PK mod
- Cc1c(N=Cc2c(O)n(C3CCCCC3)c(=O)[nH]c2=O)c(=O)n(-c2ccccc2)n1C
 : x | >25.6
- CCOc1ccc(NC(=O)CCS(=O)(=O)c2cccc3nsnc23)cc1
 : i | i
- COC(=O)CC1SC(=O)NC1=O (configuration not stated)
 : x | >25.6
- CSC1=NCCN1C(=O)c1ccc(S(=O)(=O)N2CCOCC2)cc1
 : i | x
- Clc1ccccc1Cn1nnc(-c2cccs2)n1
 : i | >57
- C=CCn1cc(C(=O)NCCCOCC)c(=O)c2cc(S(=O)(=O)N(CC)CC)ccc21
 : i | >57
- CCOC(=O)Cc1csc(NC(=O)c2ccco2)n1
 : i | >57

2 entries from above in another layout.
YjeE inh	Bst PK mod	SMILES
i	>57	CCOC(=O)Cc1csc(NC(=O)c2ccco2)n1
i	>57	Clc1ccccc1Cn1nnc(-c2cccs2)n1

Screens: PubChem BioAssay, National Center for Advancing Translational Sciences (NCATS)
